# Assay outcomes as filed in PubChem.
# GLA inh pH 4.5: qHTS Assay for Inhibitors of Human alpha-Galactosidase at pH 4.5; activity change, negative = inhibition, % at 105 µM; purified enzyme, 4-MU-alpha-Gal fluorescence, pH 4.5; AID 1467, 2008; Alpha-galactosidase A (Homo sapiens), P06280; 230,000 tested, under 10 active; inconclusive = small, poorly fitted or top-dose-only inhibition, or a rising curve; inactive = flat fitted curve, though single readings scatter; no compound was filed as active;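 further: 0% = full activity with enzyme and -100% = basal without enzyme; dose as in the result columns while the protocol names 77 µM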
# Target sequence (P06280 whole entry, looked up): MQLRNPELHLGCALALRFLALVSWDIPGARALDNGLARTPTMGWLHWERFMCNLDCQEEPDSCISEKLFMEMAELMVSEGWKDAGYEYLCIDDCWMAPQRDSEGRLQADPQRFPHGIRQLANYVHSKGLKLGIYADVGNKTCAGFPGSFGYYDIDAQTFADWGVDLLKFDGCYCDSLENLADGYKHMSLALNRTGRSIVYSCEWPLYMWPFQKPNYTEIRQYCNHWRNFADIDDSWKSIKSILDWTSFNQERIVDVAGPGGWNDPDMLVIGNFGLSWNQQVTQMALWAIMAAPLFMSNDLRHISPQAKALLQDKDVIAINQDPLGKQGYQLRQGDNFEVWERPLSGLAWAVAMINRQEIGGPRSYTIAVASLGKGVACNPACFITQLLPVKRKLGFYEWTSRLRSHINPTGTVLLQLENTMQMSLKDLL
# Rango-impB inh: qHTS Assay for Inhibitors of Rango (Ran-regulated importin-beta cargo) - Importin beta complex formation. Importin subunit beta-1 (Homo sapiens), Q14974. Rango CFP/YFP FRET sensor + importin beta, 45 min. Potency, µM (doses to about 92.2 µM), without a hit: at the top dose inhibition of complex formation. 0.031% of 340,000 active. AID 540263, 2011; active = rising FRET ratio curve, often small or poorly fitted; inconclusive = mostly compound fluorescence or quenching in the first reads; inactive = flat curves in all reads;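 further: potency means the concentration at half of the fitted maximal effect; 0% = DMSO wells and 100% = buffer wells lacking importin beta; nearly all actives have a fitted effect of over 15% in size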
#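 Inhibition scored from the CFP 486 nm/YFP 530 nm FRET ratio 45 min after adding 0.125 microM importin beta to 50 nM Rango biosensor preincubated 5 min with compound (room temperature, PBS with DTT, Tween-20, BSA). No-importin wells as positive control.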
# Rango dissoc inh: qHTS Assay for Inhibitors of RanGTP induced Rango (Ran-regulated importin-beta cargo) - Importin beta complex dissociation | 0.071% of 340,000 active | Potency, µM (doses to about 46.1 µM), inactives show top-dose activity change, negative = inhibition | Biochemical FRET Rango-importin beta, RanGTP-induced dissociation | AID 540253, 2011; active means falling FRET ratio curve, often poorly fitted, with flat reads before Ran was added; inconclusive means other falling curves, or compound fluorescence or quenching; inactive means flat or rising ratio curve;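 further: potency means the concentration at half of the fitted maximal effect; % of control where 0% means no effect; nearly all actives have a fitted effect of over 45% in size; -100% = wells without RanGTP and RCC1; the record marks most hits as doubtful in a second field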
#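 Rango/importin beta premix (0.1/0.25 uM final), PBS + 1 mM DTT + 0.02% Tween-20 + 0.1% BSA; cpd 5 min RT; FRET pre-read; + RanGTP-RCC1 (0.6 uM Ran, 2 mM GTP, 0.2 uM RCC1); 45 min RT; FRET post-read, ex 430, em 486/530 nm.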
# miR-21 FLuc: qHTS Assay for Modulators of miRNAs and/orActivators of miR-21 | 340,000 tested, under 10 active | AID 2288, 2010 | HeLa miR-21 FLuc reporter, luciferase, 48 h | Potency, µM (doses to about 38.3 µM), for the others: top-dose reporter change, positive = more light; active = well fitted rising curve with a large enough effect; inconclusive = small, poorly fitted or top-dose-only effect; inactive = no such curve, though single readings can be large or run the other way;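 further: % of control where 0% means no effect; miR-21 action dims this reporter so a rising signal means less miR-21 action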
#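 Compounds were titrated across several concentrations (up to approximately 40 uM) and incubated 48 hours with HeLa miR-21-FLuc reporter cells (miR-21 target sequence downstream of FLuc, endogenous miR-21). Readout was firefly luciferase luminescence after lytic detection reagent.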
# Numbers without * were called inactive; ? = inconclusive; . = not tested or not shown; & = joins results of further samples; [ ] = remark or other dose. These rows are one share of the data, so the mix of outcomes need not match the whole.
# Value order – GLA inh pH 4.5 | Rango-impB inh | Rango dissoc inh | miR-21 FLuc
> Cc1ccc(NS(=O)(=O)c2ccc(C)c(C(=O)N3CCN(C)CC3)c2)cc1
  3 | -5.0% | -10% | -6%
> CCC(CNC(=O)c1c(C)nn(-c2ccccc2)c1Cl)c1ccccc1 (centres undefined)
  . | -0.4% | 1% | 5%
> CCCn1c(N)c(N(CCOC)C(=O)C2CCCC2)c(=O)[nH]c1=O
  . | 5.6% | 0% | .
> Cc1ccccc1C1C(C#N)=C2NC(=O)c3c(sc4c3CCCCC4)N2C2=C1C(=O)CC(C)(C)C2 (centres undefined)
  -5 | . | . | -2%
> Cc1ccc(S(=O)(=O)CCC(=O)N(Cc2nnc(-c3ccc(Cl)cc3)o2)C2CC2)cc1
  . | 0.2% | 48% | .
> CSCCC(C)N1CCC(Oc2ccc(C(=O)N3CCCC3)cc2)CC1 (centres undefined)
  . | 4.0% | 11% | -8%
> O=C(CCC(=O)Nc1ccccc1)N/N=C/c1ccco1
  -6 | 1.9% | -13% | -11%
> COC(=O)c1cc(COC(=O)CNC(=O)c2cccc(C)c2)oc1C
  . | -2.2% | -11% | .
> Cc1cc(C)n2nc(C(=O)NCc3ccco3)cc2n1
  -12 | -0.3% | -4% | -8%
> COc1ccc(-c2cc(C(=O)N/N=C/c3cc(OC)c(OC)cc3OC)c3ccccc3n2)cc1
  . | ? | -18% | .
> COc1ccccc1N1CCN(CC(=O)NCc2ccc(Cl)cc2)CC1
  . | -3.1% | 13% | 9%
> CCCCNC(=O)/C(C#N)=C/c1ccc(C(=O)OC)cc1
  -9[21.1 µM] | -0.3% | 18% | -3%
> Cc1ccc(C(C(=O)NCC2CCCO2)N(C(=O)c2snc(C(N)=O)c2N)c2ccc(F)cc2)o1 (centres undefined)
  . | -1.9% | 6% | 0%
> CN(Cc1ccc(OCC(O)CN(C)Cc2ccccc2)cc1)Cc1nccn1C (centres undefined)
  -3 | -2.9% | 46% | -1%
> COc1cccc(NC(=O)CSc2c3c(nc4ccccc24)CCCC3)c1
  -11 | 1.2% | 7% | 23%&6%
> Cc1c(-c2ccc(Br)cc2)[n+](=O)c2c(n1[O-])CCCCC2
  4 | 3.2% | -2% | -4%
> Cc1cccc(N2C(=O)N3[C@H](c4ccc(Cl)cc4)[C@@H]4C(=O)N(C5CCCCC5)C(=O)[C@@H]4[C@]3(Cc3ccc(Cl)cc3)C2=O)c1
  . | 5.6% | 0% | 0%
> CN(C)c1ccc(-c2nnn(CC(=O)Nc3ccccc3N3CCOCC3)n2)cc1
  -4 | 0.4% | -7% | -10%
> NC(=O)Cc1ccc(C(=O)c2ccc(F)cc2)s1
  -10 | -1.6% | 0% | -20%
> Cc1ccc(S(=O)(=O)NCCN2CCNC2=O)cc1
  0 | -1.3% | 8% | -4%
> CN(C)S(=O)(=O)c1cccc(NC(=S)Nc2ccc3cn[nH]c3c2)c1
  -5 | -4.7% | 5% | -2%
> O=C(COC(=O)c1cncc(Br)c1)Nc1nc(-c2ccc(F)cc2)cs1
  -3 | 4.0% | -7% | -22%
> Cc1cccc2sc(NC(=O)[C@@H]3CCCN3C(=O)c3cccs3)nc12
  1 | -1.9% | 13% | -4%
> CCn1c(SCC(=O)N2CCC(C)CC2)nc2c(c1=O)SCC2
  . | ? | -14% | 4%
> COc1ccc(CC(=O)Nc2ccccc2N2CCOCC2)cc1OC
  4 | 1.0% | 19% | 1%
> Cn1c(SCC(=O)N2CCOCC2)nc2sc3c(c2c1=O)CCCC3
  -4 | 3.0% | 5% | 0%
> CC(=O)c1ccc(NC(=O)CN2CCC(C(=O)c3ccc4c(c3)OCCO4)CC2)cc1
  . | -2.1% | -6% | -7%
> CCOc1ccccc1NC(=O)CSc1nnc(CNC(=O)c2cccs2)o1
  . | 0.7% | 2% | 1%
> COC(=O)c1sc(C(F)(F)F)c(-c2ccccc2)c1S(=O)(=O)N1CCCC1
  -7 | 3.9% | 12% | 0%
> Cc1ccc(NC(=O)CN2C(=O)S/C(=C\C(=O)Nc3ccc(Cl)cc3)C2=O)cc1
  2 | 3.2% | 8% | -3%
> Cc1ccc(OCCN(C)C)c([N+](=O)[O-])c1
  3 | 0.8% | 11% | -10%
> Cc1cc(NC(=O)CSc2nnc(-c3ccco3)n2CC2CCCO2)no1 (centres undefined)
  1 | 0.6% | -5% | 3%
> O=C(CC1C(=O)NCCN1Cc1ccc(-c2ccccc2)cc1)NCc1ccncc1 (centres undefined)
  1 | -2.7% | -1% | 3%
> Cn1c(N2CCOCC2)nc(-c2ccccc2)c1-c1ccccc1
  10 | -2.0% | 5% | 6%
> C/C(=N/NC(=O)CNC(=O)c1ccco1)c1ccco1
  . | 0.5% | 18% | -3%
> CC1(C)Cc2cccc(C(=O)Nc3ccc(Cl)cc3)c2O1
  -5 | 0.0% | 0% | 1%
> Cc1ccc(Cl)cc1NC(=S)N(Cc1ccccc1)Cc1cccnc1
  -10 | ? | -1% | 7%
> CN(C(=O)c1sc2nc(N3CCCC3)c3c(c2c1N)CC(C)(C)OC3)c1ccccc1
  . | 6.0% | 3% | -4%
> O=C(CSc1nc2nccnc2c(=O)n1Cc1cccs1)Nc1ccccc1F
  . | 6.7% | -3% | 11%
> CS(=O)(=O)N(CC(=O)Nc1ccccc1Sc1ccccc1)c1cccc(Br)c1
  0 | 0.1% | -15% | 9%

# Exported with tabs: entries from further up
mol	GLA inh pH 4.5	Rango-impB inh	Rango dissoc inh	miR-21 FLuc
CN(C)S(=O)(=O)c1cccc(NC(=S)Nc2ccc3cn[nH]c3c2)c1	-5	-4.7%	5%	-2%
O=C(COC(=O)c1cncc(Br)c1)Nc1nc(-c2ccc(F)cc2)cs1	-3	4.0%	-7%	-22%
Cc1cccc2sc(NC(=O)[C@@H]3CCCN3C(=O)c3cccs3)nc12	1	-1.9%	13%	-4%
CCn1c(SCC(=O)N2CCC(C)CC2)nc2c(c1=O)SCC2	.	?	-14%	4%
COc1ccc(CC(=O)Nc2ccccc2N2CCOCC2)cc1OC	4	1.0%	19%	1%
Cn1c(SCC(=O)N2CCOCC2)nc2sc3c(c2c1=O)CCCC3	-4	3.0%	5%	0%
CC(=O)c1ccc(NC(=O)CN2CCC(C(=O)c3ccc4c(c3)OCCO4)CC2)cc1	.	-2.1%	-6%	-7%
CCOc1ccccc1NC(=O)CSc1nnc(CNC(=O)c2cccs2)o1	.	0.7%	2%	1%
COC(=O)c1sc(C(F)(F)F)c(-c2ccccc2)c1S(=O)(=O)N1CCCC1	-7	3.9%	12%	0%
Cc1ccc(NC(=O)CN2C(=O)S/C(=C\C(=O)Nc3ccc(Cl)cc3)C2=O)cc1	2	3.2%	8%	-3%
Cc1ccc(OCCN(C)C)c([N+](=O)[O-])c1	3	0.8%	11%	-10%
Cc1cc(NC(=O)CSc2nnc(-c3ccco3)n2CC2CCCO2)no1 (centres undefined)	1	0.6%	-5%	3%
O=C(CC1C(=O)NCCN1Cc1ccc(-c2ccccc2)cc1)NCc1ccncc1 (centres undefined)	1	-2.7%	-1%	3%

# Following part
# Value order – GLA inh pH 4.5 | Rango-impB inh | Rango dissoc inh | miR-21 FLuc
> O=C(Cn1nc(Cl)nc1Cl)c1ccc2c(c1)OCCO2
  0 | 0.8% | 1% | -8%
> Cc1ccc(CSCCNC(=O)CCSc2ccccc2)cc1
  11 | 4.1% | 0% | -9%
> N#CC(C#N)=C/C=C(\Nc1ccc(Cl)cc1)c1ccc(Cl)cc1
  0 | ? | ? | 0%
> O=C(Nc1cccc(-c2cn3ccccc3n2)c1)c1cccs1
  2 | -2.0% | 21% | -31%
> O=S(=O)(/N=C(/NNS(=O)(=O)c1ccccc1)c1ccccc1)c1ccccc1
  2 | -0.6% | 16% | 5%
> Cc1cc(OCC(O)CN2CCN(C)CC2)ccc1C(C)C (centres undefined)
  10 | -0.8%&1.0% | 14%&12% | -8%
> O=C(NCc1nnc(SCC(=O)N2CCC(Cc3ccccc3)CC2)o1)c1ccccc1F
  4 | 1.1% | -6% | 5%
> O=C(O)CN1C(=O)C(=O)N(Cc2ccc(C(F)(F)F)cc2)C1=O
  . | 0.2% | -9% | -2%
> CCOc1ccc(/C=C/C(O)=C2/C(=O)N(C)C3(C)CC2c2ccccc2O3)cc1OC (centres undefined)
  -6 | -3.9% | -17% | 24%
> CC(=O)Oc1ccc(C(=O)Nc2cccc(C(=O)c3cccc(NC(=O)c4ccc(OC(C)=O)cc4)c3)c2)cc1
  -4 | 2.3% | 4% | 18%
> CCc1ccccc1NC(=O)c1sc2nc(C)cc(C)c2c1N
  . | ? | -20% | -21%
> CCC1=NN(C(=O)c2ccc(C)cc2)C(O)(c2ccc(Br)cc2)C1 (centres undefined)
  4 | 2.1% | 21% | -33%
> CC(C)[C@H](NC(N)=O)C(=O)Nc1cccc(S(=O)(=O)NC2=NCCCCC2)c1
  . | -2.0% | 0% | .
> CCOC(=O)N1CCN(C(=O)CSCC(=O)Nc2nc(-c3ccc(-c4ccccc4)cc3)cs2)CC1
  6 | 3.2% | 14% | 24%
> Cc1ccccc1CNS(=O)(=O)c1ccc2c(c1)OCCO2
  -5 | -5.3% | -1% | -16%
> S=C(NCc1ccncc1)Nc1ccc(Br)cc1
  . | -0.3% | -4% | 24%
> Cc1ccc(NC(=O)Cc2noc3ccccc23)cc1
  -1 | 1.1% | -8% | -72%
> CC(C)c1ccc(NC(=O)CN2C(=O)NC(Cc3c[nH]c4ccccc34)C2=O)cc1 (centres undefined)
  . | ? | -12% | .
> COC(=O)c1sccc1NC(=O)CSc1cccc(Cl)c1Cl
  6 | -2.0% | 2% | -28%
> COC(=O)c1ccccc1NC(=O)Cn1cnc2c(cnn2-c2ccccc2)c1=O
  2 | -4.1% | 12% | 1%
> COc1ccc(C2=CC(=O)C[C@H](c3ccc(OC)c(OC)c3)C2)cc1
  . | -5.8% | 5% | .
> CCCN1C(=O)c2cc(C(=O)Nc3ccccc3CC)ccc2C1O (centres undefined)
  1 | -2.9% | -10% | -9%
> C/C(CC(=O)Nc1ccccn1)=N\NC(=O)c1ccc([N+](=O)[O-])cc1Cl
  . | -0.5% | -9% | -1%
> CCN(C[C@H]1N[C@@](Cc2ccccc2)(C(=O)OC)[C@H]2C(=O)N(Cc3ccccc3)C(=O)[C@@H]12)C(=O)Nc1ccc(F)cc1
  . | 0.7% | -5% | .
> COc1ccccc1OCCn1cc(/C=C(\C#N)C(=O)NCc2cccs2)c2ccccc21
  -7 | ? | -11% | -16%
> N#CCCn1cc(/C=N/NC(N)=S)c(-c2ccc(Br)cc2)n1
  -8 | 1.4% | 7% | 4%
> CCCn1c(SCC(=O)c2ccc(OC)c(OC)c2)nc2c1c(=O)n(C)c(=O)n2C
  -1 | -0.6% | -4% | -11%
> Cc1onc(-c2ccccc2)c1C(=O)OCC(=O)N(C)c1ccccc1
  . | -1.8% | 1% | .
> Cc1csc(NC(=O)Cc2ccccc2Cl)n1
  . | -0.7% | 2% | -48%
> COCc1nnc(NC(=O)c2ccc(Cl)cc2[N+](=O)[O-])s1
  -7 | 4.7% | -11% | -14%
> Cc1ccc(-c2nc(C3CCN(S(=O)(=O)c4ccc(C(F)(F)F)cc4)CC3)no2)cc1
  -5 | -0.2% | 11% | -2%
> COc1ccccc1C=NNC(=O)c1ccccc1OCCOc1ccccc1
  . | -0.8% | -8% | .
> CCN1C(=O)S/C(=C/c2ccsc2)C1=O
  0 | 0.2% | 3% | -28%
